PMP22 txn: Cell-based coincidence reporter assay to measure PMP22 gene transcription in S16 Pmp22-F2sN cells - Primary screen. Potency, µM (doses to about 57.5 µM), inactives show top-dose activity change, negative = inhibition, usual class: inhibitors. 43,000 compounds, 2% hits. S16 Pmp22-F2sN Schwann cells (luciferase reporters placed in the Pmp22 gene), FLuc/NLuc coincidence luminescence, 24 h. AID 1508649, 2021; active = clear falling dose curves in both reporters; inconclusive = both reporters move, but less clearly or upward; inactive = either reporter flat; the % is the NLuc reporter signal; also: % is scaled to controls: 0 for no effect and ±100 for the full control effect; some results filed as inactive show a strong effect at the top dose
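Rat S16 Pmp22-F2sN cells, 500-1,000/well in phenol red-free DMEM + 10% FBS, compound-treated 24 h (37C, 5% CO2). Luminescence: FLuc read, Stop&Glo added, NLuc read.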
HTT promoter inh: Primary qHTS for Identification of Small Molecule Inhibitors of Huntingtin Promoter Activity; HEK293 HTT promoter firefly luciferase reporter (activity 0% = vehicle and -100% = no light), 24 h; Potency, µM (series often up to 57.5 µM), without a hit: top-dose activity change, negative = inhibition, hits mostly inhibitors; 48,000 compounds, 0.93% hits; active = well fitted inhibition curve with a large enough effect; inconclusive = small, poorly fitted or top-dose-only effect; inactive = no such curve, though single readings can be large or run the other way; also: nearly all actives have a fitted effect of over 50% in size
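Firefly luciferase readout (Dual-Glo, 10 min RT) after 24 h, 37 °C compound exposure (final up to 57.5 uM) of HEK293 reporter cells cultured 24 h beforehand; PTC124 at 50 uM final as control inhibitor; activity scaled vehicle 0%, zero RLU -100%.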
* = called active by the depositor; ? = inconclusive; / = not tested or not shown; & = joins results of further samples; [ ] = remark or other dose. Potency is read from the fitted curve at half-maximal effect.

SMILES	PMP22 txn	HTT promoter inh
Cc1ccc(N2C(=O)C(CC(=O)Nc3ccccc3)N(CCC3=CCCCC3)C2=O)cc1 (stereo not given)	-11%	0%
CCN(CC)c1ccc(NC(=O)C2CCN(S(=O)(=O)c3cnc[nH]3)CC2)c(C)c1	-8%	-14%
CCOC(=O)c1ccc(NC(=O)CC2C(=O)N(c3ccccc3)C(=O)N2C2CCCCC2)cc1 (stereo not given)	21%	?
COc1ccc(Br)cc1CNC(=O)CCSCc1ccc(C)cc1	?	-29%
CN(C)/N=N/c1nc[nH]c1C(N)=O	/	2%
Cc1cc(C)cc(NC(=O)Cn2c(=O)c3ccccc3n3nncc23)c1	0%	-11%
Cc1cc2oc(=O)cc(C)c2c2occ(-c3ccc(Cl)cc3)c12	-21%	-8%
CCOC(=O)C1CCN(S(=O)(=O)c2cc(Br)cc3c2N(C(=O)CC)CC3)CC1	5%	-1%
CCc1ccc(S(=O)(=O)c2nnn3c2nc(NCc2cccs2)c2sccc23)cc1	?	?
COc1ccc(N(Cc2cccs2)C(=O)c2ccc(Br)o2)cc1	-2%	-26%
CN(Cc1ccccc1)c1nnc(NC(=O)Nc2cccc(Br)c2)s1	-28%	?
O=C(NCc1ccccc1)c1ccc(CS(=O)(=O)c2c(Cl)cccc2Cl)o1	-19%	-9%
CC(O)CNc1nc2c(c(=O)n(Cc3ccc(Cl)cc3)c(=O)n2C)n1C (stereo not given)	?	-27%
O=C(Nc1ccc(S(=O)(=O)N(Cc2ccccc2)c2ccccc2)cc1)c1ccc([N+](=O)[O-])cc1	31%	-22%
COc1ccc2nc(NC(=O)c3ccc(S(=O)(=O)N4CCC(C)CC4)cc3)sc2c1	-23%	-28%
CC(C)CC1Nc2ccc(C(=O)NCCCOC(C)C)cc2NC1=O (stereo not given)	-6%	-17%
CCOc1ccc(NC(=O)Cn2nc(CC)n3c(cc4sccc43)c2=O)cc1	-15%	8%
COc1cc(OC)c(NC(=O)N2CCOc3ccc(C)cc32)cc1Cl	-27%	1%
OCCN1CCN(CCCN2c3ccccc3Sc3ccc(C(F)(F)F)cc32)CC1	/	-15%&-25%
CCOC(=O)c1cc(-c2ccc(C)cc2)n(CCC(=O)NCc2ccccc2)c1C	13%	?
CC1CCCN(c2ncnc3c2cnn3-c2ccc(F)cc2)C1 (stereo not given)	3%	?
Cc1cccc(OCCSc2nc3ccc(NC(=O)COc4ccccc4)cc3s2)c1	-32%	3%
COc1ccc(NC(=O)Nc2cccc(OCc3cc(=O)n4cccc(C)c4n3)c2)c(OC)c1	?	-7%
Cc1ccc(-n2ncc3c(=O)n(Cc4cccc(Cl)c4)cnc32)cc1C	-8%	-5%
CC(=O)N1CCc2c(sc3c2c(=O)n(CCc2ccccc2)c(=O)n3CC(=O)Nc2ccc(C)c(F)c2)C1	?	-23%
O=C(Nc1ccc(OC(F)(F)F)cc1)C(NS(=O)(=O)c1cccc2nsnc12)c1ccccc1 (stereo not given)	?	?
COc1ccc2nc3oc(C(=O)NCc4ccccc4OC)cc3cc2c1	12%	23%
O=C(O)Cc1sc(Nc2ccccc2)nc1-c1ccccc1	2%	53%[activator]
CC1CCN(S(=O)(=O)c2ccc3c(c2)N(CC(=O)O)C(=O)CO3)CC1	?	?
Cc1ccc(-n2c(-c3ccco3)nc3c(cnn3-c3ccccc3Cl)c2=O)cc1	-17%	-8%

Among those listed so far, these contain bromine:
SMILES	PMP22 txn	HTT promoter inh
COc1ccc(Br)cc1CNC(=O)CCSCc1ccc(C)cc1	?	-29%
CCOC(=O)C1CCN(S(=O)(=O)c2cc(Br)cc3c2N(C(=O)CC)CC3)CC1	5%	-1%
COc1ccc(N(Cc2cccs2)C(=O)c2ccc(Br)o2)cc1	-2%	-26%
CN(Cc1ccccc1)c1nnc(NC(=O)Nc2cccc(Br)c2)s1	-28%	?

One compound at a time, as listed above.
Cc1cccc(OCCSc2nc3ccc(NC(=O)COc4ccccc4)cc3s2)c1 in the list: PMP22 txn = -32%; HTT promoter inh = 3%
CC1CCN(S(=O)(=O)c2ccc3c(c2)N(CC(=O)O)C(=O)CO3)CC1 in the list: PMP22 txn = ?; HTT promoter inh = ?

Next results
SMILES	PMP22 txn	HTT promoter inh
CCOc1cccc2sc(N3CCN(C(=O)C4CC4)CC3)nc12	-7%	-10%
Cc1ccc(NC(=O)C2Cc3ccccc3N2C(=O)c2ccccc2)cc1Cl (stereo not given)	?	-8%
Cc1c(C(=O)N(C)C)sc2c1c(=O)n(-c1ccc(Cl)cc1)c(=O)n2CC(=O)C(C)(C)C	-13%	-2%
COC(=O)c1cccnc1-n1c(=O)c2cccnc2n(CC(=O)Nc2c(C)cc(C)cc2C)c1=O	-13%	-11%
Cc1ccc(-n2nnc(-c3nsc(NC(=O)c4ccccc4)n3)c2C)cc1	-21%	5%
CCN(c1ccccc1)S(=O)(=O)c1ccc(F)c(C(=O)Nc2ccc(C)cc2)c1	?	?
Cc1ccc(CNc2ncnc3onc(C)c23)cc1	-30%	?
CCCCN(C)C(=O)Cn1ncc2c([nH]c3ccc(C)cc32)c1=O	10%	-2%
CCCCNc1nc(Oc2ccc(=O)n(C)n2)nc(N(C)C)n1	-12%	8%
COc1ccc(O)c(C2=Nc3ccccc3N=C(c3ccccc3)C2)c1	1%	-23%[11.5 µM]
COc1ccc(CNc2nc(-c3ccc(OC)c(OC)c3)cc(C(F)(F)F)n2)cc1	?	?
O=C(c1cnc(N2CCOCC2)c2ccccc12)N1CCN(c2ccccc2F)CC1	-17%	-26%
OCCN1CCN(C(c2ccc(Cl)cc2Cl)c2sc3nc(-c4ccco4)nn3c2O)CC1 (stereo not given)	?	16%
COc1ccc(C(Nc2ccccn2)c2ccc3ccc(C)nc3c2O)cc1C (stereo not given)	?	?
Nc1ncc(S(=O)(=O)NCc2ccccc2F)cn1	4%	4%
CC1=C(C(=O)Nc2cccnc2)C(c2cccc(O)c2)n2nc(SCc3ccccc3)nc2N1 (stereo not given)	?	-13%
CCOC(=O)c1c(C)oc2ccc(N(C(=O)c3ccncc3)S(=O)(=O)c3ccc(F)cc3)cc12	?	?
COC(=O)N[C@H](C(=O)N1CCC[C@@H]1c1ncc(-c2ccc(-c3ccc(-c4cnc([C@@H]5CCCN5C(=O)[C@@H](NC(=O)OC)C(C)C)[nH]4)cc3)cc2)[nH]1)C(C)C	/	-15%
O=S(=O)(O)c1cc(I)c(O)c2ncccc12	/	8%
COc1cccc(CNC(=O)C2CCCN(c3ncnc4onc(-c5ccc(F)cc5)c34)C2)c1 (stereo not given)	-1%	-6%
COc1ccc(Cl)cc1NC(=O)c1ccc(CN2C(=O)CCn3nc(C)cc32)cc1	-5%	?
Cc1ccc(C(=O)COC(=O)CCC(=O)Nc2ccc(Oc3ccccc3)cc2)cc1	41%	65%[activator]
Cc1ccc(C)c(NC(=O)c2cnn(-c3cccc(F)c3)c2C2CCN(C(=O)OC(C)(C)C)CC2)c1	?	?
COc1ccccc1N1CCN(C(=O)C2CCN(S(=O)(=O)c3cn(C)cn3)CC2)CC1	10%	-10%
CC(C)(C)C1CCc2c(sc(NC(=O)Cn3nnc(-c4cccc(C(F)(F)F)c4)n3)c2C#N)C1 (stereo not given)	0%	-19%
O=C(Nc1ccc(Br)cc1)N1CCC(CN2CCCC2)CC1	-12%	-13%
COc1ccc(-c2cc(C)no2)cc1S(=O)(=O)NC1CCC(C)CC1 (stereo not given)	-11%	?
NS(=O)(=O)c1ccc(NC(=O)CCC(=O)O)cc1	/	-3%
Cc1ccc(CNC(=O)Cn2ncc3c(C)n(Cc4ccc(Cl)cc4)c(C)c3c2=O)cc1	1%	-3%
CCOc1ccccc1C(=O)Nc1ccc2nc3c(c(Nc4ccc(OC)c(OC)c4)c2c1)CCCC3	?	?
COc1ccc(NS(=O)(=O)c2cc3[nH]c(=O)c(=O)[nH]c3cc2C)cc1Cl	-2%	4%
O=C(Cn1c(=O)n(-c2ccccc2)c(=O)c2ccc(C(=O)NCc3ccc4c(c3)OCO4)cc21)Nc1ccc(F)c(Cl)c1	?	-20%
Cc1ccc(NC(=O)c2cc(S(=O)(=O)N3CCC4(CC3)OCCO4)ccc2F)cc1Cl	?	?
Cc1ccc2c(=O)cc(C(=O)Nc3ccc(S(=O)(=O)N(C)c4ccccc4)cc3)oc2c1C	-19%	-24%
CCCN(Cc1cccs1)C(=O)Nc1cc(Cl)ccc1C	-18%	4%
CCOC(=O)c1cccc(NC(=O)[C@H](CSCc2ccccc2)N2Cc3ccccc3C2=O)c1	-3%	-27%
Cc1ccc(C)c(N2CCN(c3nc4ccccc4n4nnnc34)CC2)c1	-6%	18%
C=CCNc1c(O)cc2c(O)c1C[C@@H](C)C[C@H](OC)[C@@H](O)[C@@H](C)C=C(C)[C@H](OC(N)=O)[C@@H](OC)C=CC=C(C)C(=O)N2	/	?
O=C(O)Cc1cccc(-c2cc(CCCCCCc3ccc(O[C@H]4O[C@H](CO)[C@@H](O)[C@H](O)[C@@H]4O)c(-c4cccc(CC(=O)O)c4)c3)ccc2O[C@H]2O[C@H](CO)[C@@H](O)[C@H](O)[C@@H]2O)c1	/	10%[0.739 µM]
COc1ccc(OC)c(Nc2ncnc3c2cnn3-c2cccc(Cl)c2)c1	?	?
COc1cccc(CNCCNC(=O)c2nonc2N)c1	1%	-6%
COc1ccc(CCNC(=O)CCS(=O)(=O)c2cc3c(cc2Cl)NC(=O)CO3)cc1OC	-13%	6%
O=C1CCc2cc(S(=O)(=O)NCc3ccc(Cl)cc3)cc3c2N1CC3	0%	-13%
CCOc1ccccc1CNC(=O)c1cc(-c2ccc(Cl)s2)nc2ccccc12	?	-31%
Cc1cccc(CSc2ncc(Cl)c(C(=O)Nc3sc4c(c3C(N)=O)CCCC4)n2)c1	-24%	-6%
COc1ccc(C)cc1NC(=O)Cn1c(=O)nc(-c2ccccc2F)c2cc(Cl)ccc21	22%	-2%
CC(=O)N1CCc2c(sc3nc(SCC(N)=O)n(-c4ccc(F)c(Cl)c4)c(=O)c23)C1	-13%	11%
COc1ccc(CNC(=O)Cn2c(=O)c3cccn3c3cccnc32)cc1	-6%	-9%
CCc1ccccc1Nc1nn2c(=O)c3ccc(C(=O)NC4CCCCC4)cc3nc2s1	?	2%
Cc1ccc2nc(CSc3nnc(NC(=O)c4cccc(Br)c4)s3)cc(=O)n2c1	1%	31%[activator]
O=c1c2c3c(sc2nnn1Cc1ccc(Br)cc1)CCCC3	-4%	?
CCOc1ccccc1C(=O)Nc1cccc(-c2nc3ccccc3s2)c1	-73%	1%
Cc1ccc(Cl)cc1NC(=O)CCS(=O)(=O)c1ccc(Br)s1	-13%	-4%
CCOC(=O)c1c(C)[nH]c(CCC(=O)Nc2ccccc2OCC)c1C	-26%	-10%
COC(=O)c1nnn(CC(=O)Nc2cc(F)ccc2F)c1C(=O)OC	-30%	-2%
Cc1nn(CCCC(=O)NCc2ccccc2)c(=O)c2nn(-c3ccccc3)c(C)c12	-1%	-19%
COCCN1Cc2cccc(C(=O)Nc3ccc(C)c(F)c3)c2C1=O	-8%	-25%
COCCNC(=O)CCCn1c(SCC(=O)c2ccc(Br)cc2)nc2c(sc3ccccc32)c1=O	-21%	-12%
Cc1ccc2cc3cc(C(=O)N4CCN(c5cccc(C(F)(F)F)c5)CC4)sc3nc2c1	-1%	3%
Cc1ccc2[nH]c(CSc3nnc(NC(=O)COc4ccccc4C)s3)cc(=O)c2c1	1%	-6%

Five compounds already listed, arranged by the number in HTT promoter inh, low to high:
Structure	HTT promoter inh
Cc1nn(CCCC(=O)NCc2ccccc2)c(=O)c2nn(-c3ccccc3)c(C)c12	-19%
COc1ccc(CNC(=O)Cn2c(=O)c3cccn3c3cccnc32)cc1	-9%
Cc1ccc2[nH]c(CSc3nnc(NC(=O)COc4ccccc4C)s3)cc(=O)c2c1	-6%
COc1ccc(C)cc1NC(=O)Cn1c(=O)nc(-c2ccccc2F)c2cc(Cl)ccc21	-2%
CCOc1ccccc1C(=O)Nc1cccc(-c2nc3ccccc3s2)c1	1%

Continued.
SMILES	PMP22 txn	HTT promoter inh
CCCCc1nn2c(=O)cc(CN(CC)c3ccccc3)nc2s1	-16%	?
Cc1ccc(NC(=O)NCC2CCN(Cc3cccc(Cl)c3)CC2)cc1Cl	?	?
O=C(NCc1ccc(F)cc1)C1(c2cccs2)CCOCC1	2%	-7%
COc1cc(C(=O)NCC(c2ccc3c(c2)OCO3)N2CCN(C)CC2)cc(OC)c1OC (stereo not given)	-22%	-4%
COc1ccc(-n2c(SCC(=O)NCc3ccccc3)nc3ccsc3c2=O)cc1	?	-12%
O=C(NCc1ccccc1F)c1ccc(CSc2nc3cccnc3n2Cc2ccccc2)cc1	?	?
CCS(=O)(=O)NCCc1sc2nc(-c3ccc(OC)cc3)nn2c1C	?	?
CCN1CCN(c2ncnc3c2cnn3-c2ccc(C)c(Cl)c2)CC1	?	29%

Bioassay records (PubChem)
